TRPV1 potentiator: HTS Assay for Compounds that Act as Potentiators of the Vanilloid Receptor 1 | 320,000 compounds, 0.02% hits | potentiation, % at 8.33 µM | TRPV1-expressing cells, Fluo-8 calcium influx, capsaicin EC20 potentiation; host cell line not named in the record; control for the full effect not named in the record | Transient receptor potential cation channel subfamily V member 1 (Homo sapiens), Q8NER1; active means potentiation above 80%; inconclusive means 30% to 80%; inactive means below 30%; further: 0% is about no effect
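Cells expressing TRPV1 were dye-loaded with Fluo-8 and read kinetically: 10 s baseline, 3 min after compound (agonist portion), then 2 min after EC20 capsaicin (allosteric enhancer portion). Calcium-bound dye fluorescence at 480/520 nm.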
D2 potentiator: Beta-Arrestin HTS for Positive Allosteric Modulators of the Human D2 Dopamine Receptor: Potentiators. DiscoveRx D2 beta-arrestin cells, luminescence, 90 min; 100% = 57 uM dopamine signal. D(2) dopamine receptor (Homo sapiens), P14416. potentiation, % (test concentration not listed). 360,000 compounds, 0.23% hits. AID 624464, 2012; active = potentiation of 50% or more; inconclusive = 30% to 50%; inactive = 30% or less;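 further: compound concentration not given in the record; tested on top of an EC20 dose of dopamine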
Target sequence (P14416 whole entry, looked up): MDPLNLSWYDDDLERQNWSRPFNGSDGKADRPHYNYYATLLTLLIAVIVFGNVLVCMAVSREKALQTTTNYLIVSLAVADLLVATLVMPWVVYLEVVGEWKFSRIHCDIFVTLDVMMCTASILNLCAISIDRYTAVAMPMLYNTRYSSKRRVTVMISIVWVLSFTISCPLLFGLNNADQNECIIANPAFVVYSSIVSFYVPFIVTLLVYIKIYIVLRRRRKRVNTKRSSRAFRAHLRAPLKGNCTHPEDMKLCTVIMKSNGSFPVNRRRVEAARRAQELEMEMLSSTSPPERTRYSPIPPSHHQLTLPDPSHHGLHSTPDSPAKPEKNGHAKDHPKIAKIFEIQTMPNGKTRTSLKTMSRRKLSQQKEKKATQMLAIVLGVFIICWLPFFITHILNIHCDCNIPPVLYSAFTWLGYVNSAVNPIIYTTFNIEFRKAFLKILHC
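D2 cells co-treated with compound plus 50 nM dopamine (EC20) for 90 min at 37 deg C to detect potentiation. Beta-arrestin recruitment was read as enzyme-fragment luminescence after 1 h at ambient temperature. Full response was set by 57 uM dopamine.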
TRPML1 inh: qHTS for Inhibitors of the Human Mucolipin Transient Receptor Potential 1 (TRPML1); Mucolipin-1 (Homo sapiens), Q9GZU1; TRPML1-inducible cells, Ca2+ dye fluorescence, FDSS; stronger effect = lower value; inhibition of EC80 agonist-evoked calcium signal; activity change, negative = inhibition, % (test concentration not listed); 390,000 compounds, 0.02% hits; AID 624415, 2012; in the data active means activity change below about -50%; inconclusive means about -30% to -50%; inactive means above about -30%;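 further: stimulus is agonist 54-4 at its EC80 concentration; on the % scale 0 is the no-effect control and ±100 the full control effect; compound concentration not given in the record; the text of the record puts the active cut at -80%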
Target sequence (Q9GZU1 whole entry, looked up): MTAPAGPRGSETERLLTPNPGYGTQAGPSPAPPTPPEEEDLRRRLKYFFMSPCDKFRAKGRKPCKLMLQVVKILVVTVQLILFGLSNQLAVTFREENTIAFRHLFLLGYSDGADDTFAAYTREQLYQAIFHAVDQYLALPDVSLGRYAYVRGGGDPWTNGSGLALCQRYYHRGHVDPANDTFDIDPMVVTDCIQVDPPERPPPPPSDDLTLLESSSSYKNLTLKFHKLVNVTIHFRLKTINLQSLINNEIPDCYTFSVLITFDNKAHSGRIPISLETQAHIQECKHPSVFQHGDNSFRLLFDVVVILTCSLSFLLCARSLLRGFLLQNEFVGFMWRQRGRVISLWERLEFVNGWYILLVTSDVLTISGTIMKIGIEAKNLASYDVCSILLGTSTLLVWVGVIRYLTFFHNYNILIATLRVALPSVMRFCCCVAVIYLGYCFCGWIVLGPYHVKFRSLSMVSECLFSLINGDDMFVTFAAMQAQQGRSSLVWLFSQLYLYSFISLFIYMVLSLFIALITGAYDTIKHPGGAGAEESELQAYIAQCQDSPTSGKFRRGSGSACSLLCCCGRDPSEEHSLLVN
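Tet-induced TRPML1-DL cells loaded with Ca8 no-wash calcium dye were read kinetically on FDSS. Compound addition was followed by EC80 agonist 54-4 (4 uM final); inhibition was read over 110 s.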
TRPML1 agonist: qHTS for Agonists of the Human Mucolipin Transient Receptor Potential 1 (TRPML1); Mucolipin-1 (Homo sapiens), Q9GZU1; TRPML1-expressing cells, Ca2+ dye fluorescence, FDSS; host cell line not named in the record; reference of the full effect not given here; activation, % (no concentration beside the values); 410,000 compounds, 0.12% hits; in the data active = activation above about 50%; inconclusive = about 30% to 50%; inactive = below about 30%; further: 0% is about no effect; the text of the record puts the active cut at 80%
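Kinetic FDSS Ca2+ read in Tet-induced TRPML1-DL cells (ABD Ca8 dye plus quencher, 45-90 min RT loading): baseline, then compound, then 110 s agonist window; EC80 agonist 54-4 at 4uM final added afterwards for a 110 s antagonist window.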
Six1-Eya2 inh: qHTS Assay for Inhibitors of the Six1/Eya2 Interaction | AID 651725, 2012 | Homeobox protein SIX1 (Homo sapiens) + Protein phosphatase EYA2 (Homo sapiens), … | AlphaScreen GST-Six1/His-Eya2 binding, biochemical; stronger effect = lower value; control for the full effect not named in the record | 360,000 compounds, 0.56% hits | activity change, % (test concentration not listed); in the data active = activity change below about -65%; inconclusive = about -30% to -65%; inactive = above about -30%; further: on the % scale 0 is the no-effect control and ±100 the full control effect
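AlphaScreen with GST-Six1 and His-Eya2 (5X mix: 250 nM and 500 nM), glutathione donor and nickel acceptor beads; buffer 50 mM Tris pH 8.0, 300 mM NaCl, 1 mM TCEP; 1 h at 37 C in the dark.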
CtBP-E1A inh: qHTS Assay for Inhibitors of the CtBP/E1A Interaction. CtBP / adenovirus E1A interaction (AlphaScreen). AlphaScreen GST-E1A/His-CtBP binding, 1536-well; stronger effect = lower value; control for the full effect not named in the record. activity change, % (concentration not given with the values). 340,000 compounds, 0.49% hits; in the data active means activity change below about -65%; inconclusive means about -30% to -65%; inactive means above about -30%; further: on the % scale 0 is the no-effect control and ±100 the full control effect
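AlphaScreen with 125 nM GST-E1A and 125 nM His-CtBP (5X stocks) in Tris pH 8.0, 300 mM NaCl, BSA, Tween 20, TCEP. Compounds preincubated 2 h at 37 deg C, then glutathione donor/nickel acceptor beads added for 1 h at 37 deg C in dark.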
* = called active by the depositor; ? = inconclusive; · = not tested or not shown; & = joins results of further samples.

SMILES | TRPV1 potentiator | D2 potentiator | TRPML1 inh | TRPML1 agonist | Six1-Eya2 inh | CtBP-E1A inh
CCN(CC)C(=O)c1ccc(NC(=O)c2c(C)noc2C)cc1 | 15.9 | 6.5 | 3.4 | 0.7 | 9.9 | 8.3
O=C1NC(=O)[C@]2(Cc3ccccc3N3CCN(c4ccccc4)CC32)C(=O)N1c1ccccc1 (stereo partly drawn) | 2.8 | 20.6 | 8.5 | -0.5 | -17.5 | -11.4
C/C(=N/O)c1ccc2ccc3ccccc3c2c1 | · | -24.7 | 1.0 | 1.1 | -3.1 | ·
COc1ccc(OC)c(-n2c(O)c(C=Nc3c(C)n(C)n(-c4ccccc4)c3=O)c(=O)[nH]c2=S)c1 | 4.6 | -1.8 | 7.9 | 0.2 | -2.4 | -0.3
Cc1ccc2scc(N3CCN(C)CC3)c(=O)c2c1 | 9.3 | · | -23.8 | 3.6 | · | ·
CCN1C(=O)N(CC)C(=O)C2(Cc3ccccc3N3CCN(c4ccccc4)CC32)C1=O (stereo not drawn) | 8.3 | -14.5 | 31.1 | -0.6 | -2.8 | ·
C[C@]12CC[C@H](O)CC1=CCC1C2CC[C@@]2(C)C1CC[C@@H]2OCc1ccccc1 (stereo partly drawn) | · | -4.9 | 12.8 | -0.3 | -6.7 | 3.0
COC(=O)c1ccccc1OP(=O)(c1cccc([N+](=O)[O-])c1)c1cccc([N+](=O)[O-])c1 | 0.4 | -11.5 | 22.6 | -0.7 | -10.6 | -7.9
COC(=O)C1=C(c2ccccc2OCc2ccccc2)C[C@@H]2CC[C@H]1N2C(=O)NCCCOC(C)C | -7.4 | -9.2 | -6.2 | 1.5 | -1.3 | 2.1
COc1ccc(CNCCc2ccc3c(c2)OCO3)c(OC)c1OC | -6.0 | -9.6 | 10.0 | 1.8 | -0.6 | -3.1
CN1/C(=C\C=C2C(=O)NC(=O)NC2=O)C(C)(C)c2ccccc21 | -20.1 | 1.3 | -10.0 | 81.4* | 4.3 | 3.2
CCN(CC)S(=O)(=O)c1cc(NC(=O)C(C)N2CC=C(c3ccccc3)CC2)ccc1C (stereo not drawn) | -12.5 | -15.4 | 7.4 | 0.7 | -0.4 | -4.1
CNC(C)(C)Cc1ccccc1 | -11.8 | 6.6 | 3.6 | -1.0 | -1.1 | 2.6
CNC(=O)Oc1cccc(-c2cn3cc(OC(=O)NC)ccc3n2)c1 | 4.1 | 4.6 | 7.7 | 2.0 | -15.2 | -6.3
O=C(CF)NC(NC(=S)Nc1cccc([N+](=O)[O-])c1)C(Cl)(Cl)Cl (stereo not drawn) | -13.2 | -6.8 | -20.7 | 1.3 | -0.8 | -9.9
O=c1[nH]c(=S)n(-c2ccccc2)c(O)c1/C=N/N1CCOCC1 | 10.3 | 0.7 | 7.8 | 0.4 | -1.8 | -1.2
COc1ccccc1N1CCN(Cc2ccc(Br)cc2)CC1 | -3.2 | -66.3 | 44.6 | -0.6 | -1.4 | ·
CC(=O)c1c(C)[nH]c(C(=O)N2CCC3(CC2)OCCO3)c1C | -2.9 | -6.7 | 21.6 | 1.4 | -0.4 | -1.0
CCC(=O)Nc1cc(C(=O)N2CCC3(CC2)OCCO3)ccc1S(=O)(=O)c1ccc(C)cc1 | -5.6 | -7.0 | 9.3 | -0.3 | 6.3 | 0.2
COC(=O)c1cncn1C(C)c1ccccc1 (stereo not drawn) | · | -3.5 | 13.8 | -0.8 | 1.7 | 12.0
CCN1C(=O)C(=Cc2ccc(N3CCOCC3)o2)C(=O)N(CC)C1=S | 2.1 | -19.2 | 2.1 | 4.9 | 7.7 | ·
CCC1C(c2cc(OC)c(OC)c(OC)c2)c2cc3c(cc2OC1N1CCCC1)OCO3 (stereo not drawn) | · | -3.6 | 65.1 | 2.5 | -23.9 | -1.8
Cc1ccc(NC(=O)c2snnc2C)cc1Cl | -9.1 | -3.2 | 22.5 | 0.9 | 58.7 | 3.8
Fc1ccccc1CNCCc1ccc2c(c1)OCO2 | 8.4 | -31.7 | -3.7 | -0.1 | -1.6 | ·
Cc1nc2cc(F)ccc2n1C1CCN(Cc2nnnn2CCc2ccccc2)CC1 | -11.1 | 3.5 | 10.1 | 0.2 | 4.3 | 6.0
(further entries)
SMILES | TRPV1 potentiator | D2 potentiator | TRPML1 inh | TRPML1 agonist | Six1-Eya2 inh | CtBP-E1A inh
CN1C(=O)C(=Cc2sc(=O)n(-c3ccccc3)c2N(C)C)C(=O)N(C)C1=O | -5.5 | -9.9 | -9.6 | 3.2 | 0.0 | 5.4
O=C(NCC1=C(c2ccc3ccccc3c2)C[C@@H]2CC[C@H]1N2Cc1ccco1)c1cccnc1 | · | -3.9 | 8.1 | 0.1 | -6.1 | -12.3
CC(=Nc1ccccc1N)c1c(O)n(C)c(=O)[nH]c1=O | 1.2 | -2.2 | -2.5 | 0.5 | -4.6 | -5.6
Cc1cccc(-n2c(O)c(C=NCCN3CCCCC3)c(=O)[nH]c2=O)c1 | 6.6 | -9.2 | 10.1 | 0.2 | -12.9 | -10.9
COc1cccc(C(=O)C2CCCN(Cc3ccon3)C2)c1 (stereo not drawn) | 0.8 | -11.5 | 1.1 | 0.8 | 3.8 | 1.0
C/C(=N\N1CCCCCC1)c1c(O)n(-c2ccc(Cl)cc2)c(=O)[nH]c1=O | ? | -3.1 | 15.0 | -0.4 | -10.7 | -9.9
COC(=O)COc1ccc(/C=C2\C(=O)NC(=S)N(c3ccc(C)cc3)C2=O)cc1OC | -7.3 | -7.7 | 17.2 | 3.2 | -3.4 | 4.4
COc1cccc(N=Nc2c(O)[nH]c(=S)[nH]c2=O)c1 | ? | -26.9 | 50.0 | -0.2 | -8.9 | ·
CC1C(c2ccccc2)OCCN1C (stereo not drawn) | · | -7.3 | 19.9 | 0.0 | 4.0 | 12.1
O=[N+]([O-])c1ccc(N2CCCC2)cc1N/N=C1\CN2CCC1CC2 | -5.8 | -5.5 | 13.7 | 0.2 | -17.7 | -11.7
Cc1ccc(N=Cc2c(O)n(C)c(=O)n(C)c2=O)cc1 | -36.1 | 0.9 | -6.5 | -0.6 | -1.6 | ·
CSCCC(c1nnnn1-c1c(C)cccc1C)N1CCC(n2c(=O)[nH]c3ccccc32)CC1 (stereo not drawn) | · | -1.7 | 22.0 | 2.8 | 3.7 | -16.7
O=c1cc(C2CCNCC2)[nH][nH]1 | 9.6 | -6.0 | -6.5 | 1.1 | 1.7 | 4.2
NC(=O)c1c(NC(=O)c2ccc(S(=O)(=O)N(CCCl)CCCl)cc2)sc2c1CCCCC2 | 7.5 | -4.1 | 2.8 | 0.5 | -0.8 | 4.7
CN(C)c1ccc(/C=C/c2cc[n+](C)c3ccccc23)cc1 | 12.7 | -33.4&-6.7 | 6.1&9.4 | 0.0&0.4&0.4&-0.8 | -2.5&-3.8 | 0.9&9.8
NNC(=O)c1ccc(O)cc1 | -12.2 | 2.8 | -13.2 | 0.2 | 4.1 | ·
Cc1cc(=O)oc2cc(OCC(=O)N3CCN(Cc4ccccc4)CC3)ccc12 | · | -9.4 | 19.8 | 0.2 | -6.5 | -0.7
Cc1ccc(-n2c(C)nc3ccccc3c2=O)c(C)c1 | 21.4 | -2.8 | 4.3 | 1.7 | -0.6 | -2.9
Nc1ccc(C2(c3ccc(N)cc3)CN3CCC2CC3)cc1 | 16.4 | -6.4 | -9.2 | 1.1 | 1.5 | -4.8
CCCCCn1c(=O)c(C(=O)Nc2cccc(C)n2)c(O)c2ccccc21 | -2.1 | -5.4 | 6.9 | 0.3 | 2.8 | 13.9
O=c1c2ccccc2[nH]c(=S)n1-c1ccc(Br)cc1 | 8.3 | -5.6 | -5.9 | -0.8 | 9.6 | -0.1
O=C1NC(=O)N(Cc2ccccc2Cl)C(=O)/C1=C/c1cccs1 | 11.3 | -18.8 | 4.1 | 0.7 | -2.2 | ·
CN1[C@@H]2CC[C@H]1CC(OC1c3ccccc3CCc3ccccc31)C2 (stereo partly drawn) | -9.4 | -39.1 | 9.3 | 1.2 | -0.7 | -0.5
CCOc1ccccc1N1C(=O)NC(=O)C(CCc2ccncc2)(CCc2ccncc2)C1=O | -2.4 | 5.8 | ? | -0.4 | -10.3 | -18.5
Cc1nc2ccc(Cl)cc2c(-c2ccccc2)c1C(=O)O | 3.0 | 0.5 | 22.0 | 1.4 | -5.9 | -1.5
Further structures
SMILES | TRPV1 potentiator | D2 potentiator | TRPML1 inh | TRPML1 agonist | Six1-Eya2 inh | CtBP-E1A inh
O=C(CCN1C(=O)COc2ccccc21)N1CCC2(CC1)OCCO2 | 4.3 | 0.4 | 29.9 | 2.3 | 4.3 | 17.3
CCCn1c(C)cc(C=O)c1C | 3.3 | -8.4 | 19.2 | 0.1 | 6.3 | -3.6
CN(C)C(=O)Oc1ccc2c(c1)O/C(=C\c1cccc(Cl)c1)C2=O | 6.7 | -2.1 | -2.0 | -0.2 | 8.3 | 2.7
C#CCN1C(=O)C2(C(C#N)=C(N)OC(C)=C2C(=O)OCc2ccccc2)c2ccccc21 (stereo not drawn) | -18.0 | 10.1 | 12.9 | -0.2 | -1.5 | -4.8
CCC(C)/C=C(C)/C=C/C1=CC2=C(Cl)C(=O)C(C)(OC(C)=O)C(=O)C2=CO1 (stereo not drawn) | 15.9 | -58.6 | · | · | -27.8 | ?
CC=C(CC)C1(CCC)C(=O)NC(=S)NC1=O | · | -13.9 | 31.8 | 0.7 | 10.2 | 0.0
CC1(C)COC(Nc2ccc(Cl)cc2)=N1 | -6.3 | -5.5 | -5.0 | 0.2 | 4.5 | 9.7
CCCC(=O)NC1=C(N2CC2)C(=O)C(NC(=O)CCC)=C(N2CC2)C1=O | · | 5.8 | 2.6 | 0.2 | -6.2 | -3.3
CCOc1ccc(-n2c(O)c(C=NCCN3CCNCC3)c(=O)[nH]c2=O)cc1 | 20.5 | 0.8 | -10.1 | 0.5 | 28.8 | 44.7
Oc1cc(Cl)ccc1Oc1ccc(Cl)cc1Cl | · | -35.9 | · | · | -6.1 | -1.2
O=C(CN1CCN(CCO)CC1)Nc1ccc(Cl)cc1C(=O)c1ccccc1 | 6.1 | 0.9 | 2.3 | -0.3 | 2.7 | 0.0

No new results follow: an excerpt of the list.
SMILES | TRPV1 potentiator | D2 potentiator | TRPML1 inh | TRPML1 agonist | Six1-Eya2 inh | CtBP-E1A inh
CC1(C)COC(Nc2ccc(Cl)cc2)=N1 | -6.3 | -5.5 | -5.0 | 0.2 | 4.5 | 9.7
CCCC(=O)NC1=C(N2CC2)C(=O)C(NC(=O)CCC)=C(N2CC2)C1=O | · | 5.8 | 2.6 | 0.2 | -6.2 | -3.3
CCOc1ccc(-n2c(O)c(C=NCCN3CCNCC3)c(=O)[nH]c2=O)cc1 | 20.5 | 0.8 | -10.1 | 0.5 | 28.8 | 44.7

An excerpt (hit frequency here may not be typical).
